Env fusion inh: inhibitors of HIV-1 Env-driven cell-cell fusion, primary screen, HeLa-JRFL effector, CEM21 target cells, luciferase; inhibition, % at 12.3 µM; 360,000 compounds, 1.1% hits;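 active = mean replicate inhibition score of at least 50 and every replicate individually at or above 50; inconclusive = only one of the two criteria met; inactive = mean below 50 and not all replicates reaching 50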;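 also: 0% = plate neutral controls and 100% = maraviroc near 300 nM; one replicate is shown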
CSC inhib: cancer stem cell viability inhibitors, primary screen, luminescence; cancer stem cell-like cells viability; inhibition, % at 7.5 µM; 300,000 compounds, 1.1% hits;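 active = mean at 75% or more and at least half the replicates too; inconclusive = mean and replicates disagree; tested in HMLE shEcad cells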;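 also: 0% = median of negative and 100% = median of positive control wells; the first replicate is given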
eIF4H FP inh: human eIF4H binding inhibitors, primary screen, translation initiation inhibitor project, biochemical, uHTS, fluorescence polarization. eIF4H fluorescence polarization binding assay. inhibition, % at 35 µM. 290,000 compounds, 0.94% hits. AID 2012, 2009;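 active = 50% or more with normal probe brightness, or confirmed in later tests; inconclusive = above 50% with abnormal brightness, or retests that disagree; inactive = below 50% or failed in later tests; about a fifth of its hits are not listed in these tables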;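 also: calls also rest on retests at 20 µM and on dose response follow-up; 0% = protein and probe with vehicle and 100% = probe without protein; strong numbers were not always called active; many hits fall short of the cut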
Rce1 inhib: yeast Rce1p protease inhibitors, primary screen, biochemical, fluorescence, cell-free homogeneous | yeast membranes, quenched prenylated peptide cleavage fluorescence | calls only | 290,000 compounds, 0.27% hits | AID 2563, 2010;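 active = fall in fluorescence gain of 50% or more versus controls, with final raw signal at or below 3038400; inconclusive = same 50% fall but final raw signal above 3038400; inactive = fall in fluorescence gain under 50%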;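 also: plate controls were neutral control wells for no effect and wells lacking membranes for full effect; tested at 10 µM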
Target sequence (Q03530 whole entry, looked up): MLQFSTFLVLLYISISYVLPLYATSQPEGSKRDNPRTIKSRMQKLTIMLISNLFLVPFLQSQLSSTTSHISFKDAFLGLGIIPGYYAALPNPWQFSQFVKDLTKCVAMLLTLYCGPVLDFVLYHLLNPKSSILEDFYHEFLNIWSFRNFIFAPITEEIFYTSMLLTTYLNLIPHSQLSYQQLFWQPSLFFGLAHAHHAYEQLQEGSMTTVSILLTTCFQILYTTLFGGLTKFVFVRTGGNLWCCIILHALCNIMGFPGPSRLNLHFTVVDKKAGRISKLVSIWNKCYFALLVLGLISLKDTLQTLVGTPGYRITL
UUG fidelity: modulators of yeast start codon fidelity, primary screen, whole organism, S. cerevisiae, single point, plate reader. S. cerevisiae UUG-firefly luciferase reporter, luminescence/redox ratio. 350,000 compounds, 0.13% hits. activity score, % at 18.7 µM;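 active = replicate mean at a twofold rise or more, about +100% in these data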;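 also: firefly luciferase made from a UUG start codon reports start codon fidelity; reporter light over untreated wells divided by growth signal over untreated wells; some hits fall short of that in this replicate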
MT1-MMP act inh: blockers of MT1-MMP proenzyme processing, primary screen, HT1080 RFP-PRO-GFP cells, GFP/RFP fluorescence; 360,000 compounds, 0.061% hits; GFP/RFP ratio change, % at 20 µM; GFP/RFP ratio fluorescence, overnight; percent of plate control window, DMSO zero;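 active = GFP/RFP ratio change of at least 30% with cell ATP level not reduced by more than half and red fluorescence within 50% of control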; also: strong numbers were not always called active
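Test system: HT1080 RFP-PRO-GFP cells; Benchmarks: DMSO and RFP-L50D-GFP cell wells; Timing: cells overnight before dosing, compound overnight, 37 °C, 5% CO2; Compound: one 20 µM compound dose with 1% DMSO; Read-out: GFP/RFP fluorescence ratio.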
PABP polyA inh: PABP poly(A) RNA binding inhibitors, primary screen, biochemical, fluorescence polarization, uHTS. inhibition, % at 35 µM. AID 2014, 2009. Polyadenylate-binding protein 1 (Homo sapiens), P11940. 290,000 compounds, 1% hits;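 active = 50% or more with normal probe brightness, or confirmed in later tests; inconclusive = above 50% with abnormal brightness, or retests that disagree; inactive = below 50% or failed in later tests; about a fifth of its hits are not listed in these tables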;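 also: calls also rest on retests at 20 µM and on dose response follow-up; controls were probe without protein and protein plus probe with vehicle; some compounds called inactive have numbers as strong as hits; many hits fall short of the cut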
MT1-MMP act inh RFP: second read-out of MT1-MMP act inh, no call of its own (marks repeat the call); RFP signal change, %; measured here: RFP expression control read;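 0 = vehicle wells; hits needed this value within 50% of zero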
Starred values were filed as active, the others as inactive; i = inactive; ? = inconclusive; . = no result given. These rows are one share of the data (hit frequency here may not be typical).

structure | UUG fidelity | CSC inhib | Rce1 inhib | MT1-MMP act inh | eIF4H FP inh | MT1-MMP act inh RFP | PABP polyA inh | Env fusion inh
NS(=O)(=O)c1ccc(CCNC(=O)CN2CCCCCC2)cc1 | . | . | i | -1.8 | -7.4 | 1.2 | -6.7 | 4.3
CCCCNC(=S)NNC(=O)c1csc2c1CCC(C)C2 (configuration not stated) | -17.4 | . | i | 1.9 | 11.2 | -7.9 | -0.1 | 25.2
O=c1[nH]cnc2sc3c(c12)CN(Cc1ccccc1)CC3 | -19.4 | -16.9 | i | -23.2 | 41.4 | -1.2 | ? | .
COc1ccccc1N1C(=O)C2C3C=CC(CC3)C2C1=O (configuration not stated) | -22.2 | 1.4 | i | 0.0 | 1.9 | 0.2 | -1.7 | -6.0
O=C(CSc1nnc2scc(-c3ccccc3)n12)N1CCCc2ccccc21 | 14.6 | 1.8 | i | 2.8 | -2.4 | -0.1 | -6.5 | .
Cc1ccc(C)c(N(CC(=O)N2CCc3ccccc3C2)S(C)(=O)=O)c1 | 0.2 | -13.2 | . | 1.3 | . | 0.2 | . | 18.2
COC(=O)COc1coc(CN2CCN(c3cccc(Cl)c3)CC2)cc1=O | -9.0 | -8.1 | i | -0.1 | -5.2 | 1.3 | -4.5 | 0.2
COc1ccccc1NC(=O)c1ccc([N+](=O)[O-])cc1[N+](=O)[O-] | . | -26.7 | i | 18.0 | -0.3 | -1.9 | 3.9 | -6.6
CCOC(=O)C1CCN(Cc2cc(=O)oc3c(C)c(C)ccc23)CC1 | -4.7 | -5.1 | i | 0.9 | -2.3 | -3.8 | -6.8 | 16.0
CCOc1ccccc1C1CC(c2ccccc2)Nc2nc(N)nn21 (configuration not stated) | -13.5 | -1.7 | i | -1.8 | 1.1 | 2.5 | 5.6 | -12.2
COc1ccc(COC(=O)C2CCN(S(=O)(=O)c3ccc(OC)c(OC)c3)CC2)cc1 | -14.9 | . | . | 4.6 | . | -3.5 | . | -2.2
O=C(Nc1sc2c(c1C(=O)NC1CCCCC1)CCC2)c1ccco1 | -2.2 | . | i | -4.0 | 1.7 | -0.8 | -2.8 | .
O=C(CCS(=O)(=O)c1cccc2nonc12)NCCc1ccccc1 | 54.8 | 7.5 | i | 2.9 | -2.3 | 5.5 | -3.1 | -35.1
Cn1c(=O)c2ccccc2n2c(=S)[nH]nc12 | -15.8 | -9.3 | i | 3.3 | -2.3 | 3.3 | 17.2 | 3.7
CCc1cccc(NC(=O)CCCN2C(=O)NC(C)(C)C2=O)c1 | -2.7 | . | . | 0.0 | . | 5.5 | . | 0.0
Cc1ccc(OCc2nnc(SCC(N)=O)n2N)cc1 | . | -0.5 | i | -4.9 | 0.6 | 0.0 | -14.6 | 3.8
c1ccc(Nc2nc(-c3ccccn3)cs2)cc1 | -54.4 | 6.5 | i | 14.7 | 2.1 | 8.0 | 2.1 | -422.5
CN(C)c1cc(-c2ccc(Br)cc2)oc(=O)c1Cl | -14.4 | 14.3 | i | -8.9 | 2.0 | -10.1 | 3.6 | 9.0
O=C(Nc1ccc2nc(-c3cccnc3)[nH]c2c1)C12CC3CC(CC(C3)C1)C2 | -11.5 | 52.7 | i | 4.7 | -1.0 | -3.9 | 8.8 | .
CCCn1[nH]cc(SC)c(=O)c1=O | . | -10.5 | i | -4.5 | -16.0 | -3.3 | 14.1 | 19.4
COc1ccc(-n2cc(C(=O)O)c3ccccc3c2=O)cc1 | -23.4 | -4.1 | i | 0.2 | -2.6 | 0.4 | 12.7 | -8.3
O=C(c1cc2c(s1)-c1ccccc1OC2)N1CCN(c2ccccn2)CC1 | -7.5 | 11.9 | i | 1.3 | -2.9 | 2.2 | 2.4 | -1.4
COc1ccccc1OC(=O)c1ccc(S(=O)(=O)N(C)C)cc1 | -4.8 | 8.1 | i | -0.1 | -3.4 | -2.4 | 4.0 | -8.6
CCOc1ccc(-n2ccnc(SCC(=O)NCc3cccc(OC)c3)c2=O)cc1 | -4.0 | 5.9 | i | -2.8 | . | -3.2 | . | .
Cc1cc2cc(CN(Cc3ccc4c(c3)OCO4)C(=O)c3cnccn3)c3nnnn3c2cc1C | . | -7.5 | i | -0.7 | -0.7 | 0.2 | -7.9 | -64.7

structure | UUG fidelity | CSC inhib | Rce1 inhib | MT1-MMP act inh | eIF4H FP inh | MT1-MMP act inh RFP | PABP polyA inh | Env fusion inh
Cc1c(C#N)c(NC(=O)C(C)C)n(Cc2ccccc2)c1C | . | 8.9 | i | -2.2 | -1.2 | -2.8 | 7.9 | 5.4
O=C(Cc1ccccc1[N+](=O)[O-])NCCCN1CCOCC1 | 1.4 | -10.6 | i | 0.0 | 2.0 | 0.9 | 12.3 | -5.7
CCc1ccc2oc(=O)cc(CN3CCN(Cc4ccccc4)CC3)c2c1 | -2.9 | 4.3 | i | -1.4 | -1.8 | -0.9 | -9.5 | 15.1
Cc1ccc(NC(=O)c2cc(S(=O)(=O)N3CCOCC3)cn2C)cc1Cl | -25.7 | 6.2 | i | 3.8 | -4.7 | -1.8 | -3.1 | 28.1
Cc1ccc(S(=O)(=O)N2CCN(C(=O)Cc3sc(C)nc3-c3ccc(F)cc3)CC2)c(C)c1 | 2.6 | 10.4 | i | -3.4 | . | -7.9 | . | 3.0
COc1cccc(C2c3[nH]c4ccccc4c3C[C@H]3C(=O)N(c4ccccc4C(=O)N4CCCC4C(=O)O)C(=O)N23)c1 (some centres not stated) | -3.1 | 1.4 | i | 0.2 | 11.9 | 4.5 | -8.7 | .
O=C(Cn1cnc2ccccc2c1=O)Nc1ccc2c(c1)CCC2 | -6.8 | -3.0 | i | -4.5 | -9.2 | -0.5 | -2.9 | -110.7
COC(=O)c1ccc(Oc2nc(Nc3ccc(C)c(C)c3)nc(N(C)C)n2)cc1 | -11.7 | . | i | -38.3 | -14.8 | -33.0 | -3.6 | 64.7*
CCn1c2ccccc2nc2cc3c(cc21)c(Cl)c(=O)c1ccccc13 | -17.9 | . | . | 35.7* | . | 22.3* | . | -107.9
CCOc1ccc(S(=O)(=O)N(C)c2ccc(OCC(=O)NCc3ccco3)cc2)cc1 | 4.6 | 5.5 | i | -2.3 | 6.8 | -4.1 | 2.3 | .
Cc1cc(NCc2ccccc2)nc2ccccc12 | -3.5 | . | i | 5.7 | -2.8 | 3.4 | -5.8 | .
CC(=O)Nc1ccc2c(c1)N(C(C)=O)c1ccccc1CC2 | . | 16.0 | i | -2.4 | 0.8 | 1.6 | 2.3 | -17.7
c1ccc2c(c1)ncn2CCCOc1ccc2c(c1)CCC2 | -21.6 | -9.2 | i | 1.8 | -6.3 | -13.8 | -5.0 | 43.5
COC(=O)c1c(NC(=O)CSc2nnc(-c3cccnc3)n2Cc2ccco2)sc(C)c1C | -16.9 | -8.2 | i | -2.2 | -0.1 | -0.8 | 4.3 | 1.0
O=C1CN(C(=O)c2ccccc2F)c2ccccc2N1 | -2.3 | -1.3 | i | 5.7 | -3.0 | 8.3 | -2.2 | -4.9
O=[N+]([O-])c1ccccc1Nc1ccccc1 | . | -5.2 | i | 2.6 | 1.9 | 3.4 | 4.8 | -6.4
Cc1ccc(S(=O)(=O)Nc2ccc3ccccc3n2)cc1 | 8.0 | -2.3 | i | 3.5 | 4.8 | -6.2 | 9.8 | -2.6
CCCCn1c(-c2cccc(Br)c2)nc2cc3[nH]c(=O)c(C(C)C)nc3cc21 | -12.7 | -7.6 | i | -25.0 | 38.6 | -27.0 | 21.1 | -2.1
NC(=O)c1cn(-c2ccccc2)nc1-c1cccnc1 | -6.0 | -9.9 | i | 4.9 | -15.5 | 5.3 | -4.0 | -31.9
COC(=O)[C@H](CCSC)NC(=O)Nc1ccc(S(N)(=O)=O)cc1 | -24.6 | -7.0 | i | -1.3 | 0.2 | 3.3 | -6.1 | 10.0
COc1ccccc1N(CC(=O)N1CCCCCC1)S(=O)(=O)c1ccc(C)cc1 | 4.4 | -0.5 | i | 0.6 | -6.8 | 1.1 | 1.4 | 17.7
COCCCNc1ncnc2c1nc1n2CCCC1 | -11.7 | -5.1 | i | 1.3 | -5.4 | 2.7 | -2.7 | -3.9
Cc1csc(NC(=O)C2CCCCC2C(=O)O)n1 (configuration not stated) | -15.7 | -14.3 | . | -0.3 | -10.4 | 0.6 | -10.1 | -75.2
CCOC(=O)c1ccc(CN2Cc3ccccc3C2=O)cc1 | 1.4 | -10.1 | i | -0.6 | -6.6 | -0.4 | -10.5 | 6.8
COc1ccc(C(=O)NN/C=C/C(=O)c2ccc(Br)cc2)cc1 | -3.2 | . | . | -1.1 | . | 3.2 | . | 1.2

structure | UUG fidelity | CSC inhib | Rce1 inhib | MT1-MMP act inh | eIF4H FP inh | MT1-MMP act inh RFP | PABP polyA inh | Env fusion inh
O=C(CCc1ccccc1)NCC1OCCc2ccccc21 (configuration not stated) | -3.5 | 0.6 | i | 1.9 | -5.5 | 2.1 | 0.2 | -5.5
CCn1c(=O)c2cc(C(=O)NCc3cccs3)sc2c2ccccc21 | -4.7 | -16.7 | . | -0.9 | -4.4 | 0.7 | -7.4 | 7.8
Cc1ccc(S(=O)(=O)NCCc2nnc3ccc(NCCCOC(C)C)nn23)cc1 | . | 5.2 | i | -0.4 | 3.3 | 5.1 | 24.4 | 8.0
C/C(=N/NC(=O)CNC(=O)/C=C/c1ccccc1)c1ccco1 | -16.9 | -13.9 | i | 2.2 | 2.3 | -0.9 | -5.1 | 2.5
c1cc2[nH]c3ccncc3c2cn1 | -16.1 | . | . | -7.1 | . | 0.0 | . | 7.0
O=C1CCCC2=C1C1(CCCC1)N=C(Nc1nc3cc(-c4ccccc4)ccc3o1)N2 | -5.0 | . | . | -30.7 | . | -39.7 | . | 12.2
COc1ccc(CCNC(=O)CN(c2ccccc2OC)S(C)(=O)=O)cc1OC | -5.4 | -3.1 | i | -3.9 | -2.1 | 0.3 | -4.7 | .
O/N=C(\Cc1cscn1)c1ccc(O)cc1O | . | -1.6 | i | -0.6 | 2.2 | 2.2 | 6.9 | .
CCN1CCC(N2CCN(c3ccc(F)cc3)CC2)CC1 | -3.4 | 6.6 | i | -3.1 | -7.9 | 1.6 | 8.9 | -2.2
CC(=O)Nc1ccc(S(=O)(=O)NCCc2csc(-c3cccnc3)n2)cc1 | -4.2 | -4.2 | i | 0.2 | -9.3 | 3.0 | 4.8 | 2.2
CC(=O)Nc1ccc(NC(=O)COC(=O)c2cc(S(=O)(=O)N3CCCC3)ccc2O)cc1 | -2.8 | -20.5 | . | 0.2 | . | 0.6 | . | -21.5
O=C(Nc1ccc(Cl)cc1)Nc1ccccc1NS(=O)(=O)c1cccs1 | . | 35.3 | i | -0.6 | 7.6 | -1.0 | 0.9 | 3.4
Cc1ccc(S(=O)(=O)N2CCC(C(=O)OCC(=O)N(C)C3CCS(=O)(=O)C3)CC2)cc1C (configuration not stated) | -6.2 | . | i | 3.9 | . | 1.2 | . | .
Cc1ccnc(NC(=S)N2CCN(c3cccc(C(F)(F)F)c3)CC2)c1 | -19.4 | 48.1 | . | 2.0 | 6.2 | -23.8 | -4.6 | -1.7
COc1ccc(S(=O)(=O)N(C)c2ccc(C(=O)NCc3ccco3)cc2)cc1OC | -14.7 | 0.0 | i | -2.7 | -1.7 | -1.7 | -9.2 | -36.7
